NOMO-1 viab = STK33 inhibitor candidate reducing NOMO-1 cell viability | NOMO-1 AML viability, CellTiter-Glo luminescence, 72 h | inhibition, % (concentration not given with the values) | 7.5% of 37,000 active;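 active means most replicates above 80%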;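 further: wells of about 30 µL received 25 nL stock; 0% = median of vehicle wells and 100% = reference inhibitor level; the first replicate is given; inactives centre near 10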
* marks the source's active call; other numbers are inactive results. This is a subset, so the mix of outcomes need not match the whole.

Preview (7 entries):
SMILES	NOMO-1 viab
CC(=O)Nc1ccc(NC(=O)CN(c2ccc(I)cc2)S(C)(=O)=O)cc1	51.9
NC1(N)OC(CN2C(=O)c3ccccc3C2=O)CS1 (stereo unspecified)	23.3
COCCNC(=O)c1ccccc1NC(=O)c1cccc([N+](=O)[O-])c1C	9.3
Cc1noc(C)c1S(=O)(=O)N(C)C[C@H]1Oc2ccc(NS(=O)(=O)c3cccs3)cc2C(=O)N([C@@H](C)CO)C[C@H]1C	21.3
C[C@H]1CN([C@@H](C)CO)C(=O)c2cc(NS(=O)(=O)c3ccc(Cl)cc3)ccc2O[C@H]1CN(C)S(=O)(=O)c1cn(C)cn1	33.3
C[C@@H]1CN([C@H](C)CO)C(=O)c2cc(NC(=O)c3ccncc3)ccc2O[C@@H]1CN(C)Cc1ccc(Cl)c(Cl)c1	25.0
Cc1noc(C)c1S(=O)(=O)Nc1ccc2c(c1)CC(=O)N([C@@H](C)CO)C[C@H](C)[C@@H](CN(C)S(=O)(=O)c1ccc(Cl)cc1)O2	7.1

The listing, previewed entries included:
SMILES	NOMO-1 viab
CC(=O)Nc1ccc(NC(=O)CN(c2ccc(I)cc2)S(C)(=O)=O)cc1	51.9
NC1(N)OC(CN2C(=O)c3ccccc3C2=O)CS1 (stereo unspecified)	23.3
COCCNC(=O)c1ccccc1NC(=O)c1cccc([N+](=O)[O-])c1C	9.3
Cc1noc(C)c1S(=O)(=O)N(C)C[C@H]1Oc2ccc(NS(=O)(=O)c3cccs3)cc2C(=O)N([C@@H](C)CO)C[C@H]1C	21.3
C[C@H]1CN([C@@H](C)CO)C(=O)c2cc(NS(=O)(=O)c3ccc(Cl)cc3)ccc2O[C@H]1CN(C)S(=O)(=O)c1cn(C)cn1	33.3
C[C@@H]1CN([C@H](C)CO)C(=O)c2cc(NC(=O)c3ccncc3)ccc2O[C@@H]1CN(C)Cc1ccc(Cl)c(Cl)c1	25.0
Cc1noc(C)c1S(=O)(=O)Nc1ccc2c(c1)CC(=O)N([C@@H](C)CO)C[C@H](C)[C@@H](CN(C)S(=O)(=O)c1ccc(Cl)cc1)O2	7.1
COc1ccc(C)cc1S(=O)(=O)N(C)CC(=O)N1CCOCC1	14.7
Cc1ccc(NS(=O)(=O)c2cc(C(=O)Nc3ccccc3C(=O)N3CCCC3)ccc2Cl)cc1C	26.8
Cc1ccc(S(=O)(=O)N(C)C[C@H]2Oc3c(NC(=O)Nc4cccc5ccccc45)cccc3C(=O)N([C@@H](C)CO)C[C@@H]2C)cc1	50.4
C[C@H](CO)N1C[C@H](C)[C@@H](CN(C)S(=O)(=O)c2cn(C)cn2)Oc2c(NS(C)(=O)=O)cccc2C1=O	-1.5
Cc1noc(C)c1S(=O)(=O)Nc1ccc2c(c1)CC(=O)N([C@H](C)CO)C[C@H](C)[C@H](CN(C)C(=O)NC(C)C)O2	-3.0
Cc1ccc2nc(-c3ccc(NC(=O)CN4C(=O)c5ccccc5C4=O)cc3)sc2c1	16.3
Cc1noc(C)c1S(=O)(=O)Nc1ccc2c(c1)C(=O)N([C@@H](C)CO)C[C@@H](C)[C@H](CN(C)CC1CC1)O2	7.3
Cc1ccc(S(=O)(=O)N(C)C[C@@H]2Oc3ccc(NC(=O)C4CC4)cc3CC(=O)N([C@@H](C)CO)C[C@@H]2C)cc1	84.5*
C[C@@H]1CN([C@@H](C)CO)C(=O)c2cc(NC(=O)c3ccncc3)ccc2O[C@H]1CN(C)Cc1ccncc1	0.0
O=C1C(c2ccccc2)CCCC1c1ccccc1 (stereo unspecified)	11.4
Cc1ccc(S(=O)(=O)Nc2cccc3c2O[C@H](CN(C)Cc2ccc(Cl)c(Cl)c2)[C@@H](C)CN([C@@H](C)CO)C3=O)cc1	37.4
COc1ccc(NC(=O)Nc2ccc3c(c2)C(=O)N([C@H](C)CO)C[C@@H](C)[C@H](CN(C)Cc2ccc(Oc4ccccc4)cc2)O3)cc1	11.4
C[C@H](CO)N1C[C@H](C)[C@H](CN(C)C(=O)Nc2ccccc2)Oc2ccc(NC(=O)CCC(F)(F)F)cc2CC1=O	-9.6
C[C@H]1CN([C@@H](C)CO)C(=O)c2cc(N(C)C)ccc2O[C@@H]1CN(C)S(=O)(=O)c1ccccc1	5.6
COc1ccc(S(=O)(=O)N(C)C[C@H]2Oc3ccc(NC(=O)NC(C)C)cc3CC(=O)N([C@@H](C)CO)C[C@@H]2C)cc1	-10.2
Cc1noc(C)c1NC(=O)N(C)C[C@H]1Oc2c(NS(=O)(=O)c3cn(C)cn3)cccc2C(=O)N([C@@H](C)CO)C[C@H]1C	2.0
C[C@@H]1CN([C@@H](C)CO)C(=O)c2cc(NS(C)(=O)=O)ccc2O[C@@H]1CN(C)C(=O)NC1CCCCC1	1.9
CC(=O)c1ccccc1OCC(O)CN1CCN(c2ccccn2)CC1 (stereo unspecified)	15.0
CC1(C)CC(=O)C2=C(C1)N(CC1CCCO1)C(=O)C2(NC(=O)c1ccccc1)C(F)(F)F (stereo unspecified)	7.2
COc1ccc(OCCSc2nc3ccccc3n2C)cc1	2.6
N#Cc1ccccc1CSc1nnc(CN2CCOCC2)n1-c1ccccc1	-11.5
C[C@H]1CN([C@@H](C)CO)C(=O)c2cc(NS(=O)(=O)c3ccccc3)ccc2O[C@H]1CN(C)S(=O)(=O)c1cccs1	8.4
CC1CCCN(CC(O)COCC2COc3ccccc3O2)C1 (stereo unspecified)	-19.0
C[C@H]1CN([C@@H](C)CO)C(=O)c2cc(NC(=O)CCN3CCOCC3)ccc2O[C@@H]1CN(C)S(C)(=O)=O	14.5
Cc1ccc(S(=O)(=O)N(C)C[C@H]2Oc3c(NC(=O)Nc4ccc(C(F)(F)F)cc4)cccc3C(=O)N([C@@H](C)CO)C[C@H]2C)cc1	118.8*
Cc1cc(C(=O)Nc2cccc3c2O[C@H](CN(C)S(C)(=O)=O)[C@H](C)CN([C@H](C)CO)C3=O)n(C)n1	22.9
C[C@@H]1CN([C@H](C)CO)C(=O)Cc2cc(NC(=O)CCC(F)(F)F)ccc2O[C@@H]1CN(C)S(C)(=O)=O	10.0
CC1CCc2c(sc3nnn(CC(=O)Nc4cc(Cl)ccc4Cl)c(=O)c23)C1 (stereo unspecified)	23.8
O=C(CSc1ncnc2sc3c(c12)CCC3)Nc1cccc(-c2nc3ccccc3s2)c1	23.1
Cc1noc(C)c1S(=O)(=O)Nc1ccc2c(c1)CC(=O)N([C@H](C)CO)C[C@@H](C)[C@H](CN(C)C(=O)Nc1ccc3c(c1)OCO3)O2	24.4
O=C(COc1ccccc1Cl)Nc1ccc(C(=O)Nc2ccccc2C(=O)O)cc1	-26.8
O=C(CSc1nc2ccccc2s1)Nc1ccc(I)cc1	11.3
COc1cc(OC)c2c(=O)c(OC)c(-c3ccccc3)oc2c1	1.2
CN1CCC(OC(=O)COc2ccc(F)cc2)CC1	9.5
C[C@@H]1CN([C@H](C)CO)C(=O)c2cc(NC(=O)C3CCCCC3)ccc2O[C@@H]1CN(C)S(C)(=O)=O	2.6
COc1ccc(NC(=O)N(C)C[C@H]2Oc3c(NC(=O)c4cc(C)nn4C)cccc3C(=O)N([C@@H](C)CO)C[C@@H]2C)cc1	20.1
COc1ccc(S(=O)(=O)N(C)C[C@H]2Oc3c(NC(=O)c4nc5ccccc5s4)cccc3C(=O)N([C@H](C)CO)C[C@H]2C)cc1	28.8
O=C(CCn1nc(-c2ccc(Cl)cc2)c2ccccc2c1=O)Nc1ccc(Br)cc1	29.4
Cc1ccccc1OCC(=O)Nc1cccc(-c2nc3ncccc3o2)c1	16.0
Cc1noc(C)c1NC(=O)N(C)C[C@H]1Oc2ccc(NC(=O)CCCCCC(=O)Nc3ccccc3N)cc2C(=O)N([C@@H](C)CO)C[C@H]1C	6.0
O=C(CN1C(=O)c2cccc3cccc1c23)Nc1ccc(S(=O)(=O)N2CCCCCC2)cc1	73.3
Cc1noc(C)c1NC(=O)N(C)C[C@@H]1Oc2c(NC(=O)c3ccncc3)cccc2C(=O)N([C@H](C)CO)C[C@@H]1C	-8.6
C[C@@H]1CN([C@@H](C)CO)C(=O)c2cccc(NC(=O)Nc3ccc(C(F)(F)F)cc3)c2O[C@@H]1CN(C)S(=O)(=O)c1ccccc1	66.3

(continued)
SMILES	NOMO-1 viab
C[C@@H]1CN([C@@H](C)CO)C(=O)c2cccc(NC(=O)C3CCOCC3)c2O[C@H]1CN(C)S(=O)(=O)c1cccs1	-4.0
CC(C)C1=NNC(=O)C1(C)C	2.4
Cc1noc(C)c1S(=O)(=O)Nc1cccc2c1O[C@H](CN(C)Cc1ccncc1)[C@H](C)CN([C@@H](C)CO)C2=O	9.6
CC(C)NC(=O)Nc1ccc2c(c1)C(=O)N([C@@H](C)CO)C[C@@H](C)[C@@H](CN(C)Cc1ccc(Cl)c(Cl)c1)O2	6.9
Cc1ccc(C)c(C(Nc2ccccn2)c2ccc3ccc(C)nc3c2O)c1 (stereo unspecified)	106.9*
CNC(=O)CN(c1ccc(Br)c(C)c1)S(C)(=O)=O	10.7
Cc1cc(C)c(NC(=O)CN(C)S(=O)(=O)c2ccc3ccccc3c2)c(C)c1	30.3
O=C(NCc1nc(-c2ccccc2)no1)c1ccc2ccccc2c1	-9.0
C[C@H]1CN([C@@H](C)CO)C(=O)c2cccc(NC(=O)NC3CCCCC3)c2O[C@H]1CN(C)S(=O)(=O)c1ccccc1	62.5
C[C@@H]1CN([C@H](C)CO)C(=O)Cc2cc(NS(=O)(=O)c3ccc(F)cc3)ccc2O[C@H]1CN(C)Cc1ccc(C(=O)O)cc1	-0.7
COC(=O)c1c(NC(=O)CSc2ccccn2)sc2c1CCC2	27.9
Cc1ccc(S(=O)(=O)N(C)C[C@@H]2Oc3ccc(NC(=O)Nc4c(C)noc4C)cc3CC(=O)N([C@H](C)CO)C[C@H]2C)cc1	-2.7
Cc1ccc(Sc2sc(=O)n(C)c2S(=O)(=O)c2ccc(C)cc2)cc1	62.4
Cc1noc(C)c1NC(=O)Nc1cccc2c1O[C@@H](CN(C)Cc1ccc(C(=O)O)cc1)[C@H](C)CN([C@H](C)CO)C2=O	3.7
CCCCc1c(O)c2cccc3c4ccccc4n(c1=O)c23	-30.4
COC(=O)c1cccc(NC(=O)CSc2nc3cc4ccccc4cc3[nH]2)c1	57.7
COc1ccc(NC(=O)N(C)C[C@H]2Oc3ccc(NS(=O)(=O)c4ccc(F)cc4)cc3CC(=O)N([C@H](C)CO)C[C@H]2C)cc1	3.2
COc1ccc(S(=O)(=O)Nc2cccc3c2O[C@H](CN(C)Cc2ccc(-c4ccccc4)cc2)[C@@H](C)CN([C@@H](C)CO)C3=O)cc1	42.7
C[C@@H]1CCCCO[C@H](CN(C)C(=O)CCC(F)(F)F)[C@@H](C)CN([C@H](C)CO)C(=O)c2cc(NC(=O)CCCCCC(=O)Nc3ccccc3N)ccc2O1	16.1
Cc1cc(C(=O)CSc2ncn[nH]2)c(C)n1-c1cc(Cl)ccc1Cl	15.4
C[C@@H]1CN([C@H](C)CO)C(=O)Cc2cc(NS(=O)(=O)c3ccc(Cl)cc3)ccc2O[C@H]1CN(C)CC1CC1	-12.6
C[C@H]1CN([C@@H](C)CO)C(=O)Cc2cc(NC(=O)C3CCCCC3)ccc2O[C@H]1CN(C)S(=O)(=O)c1ccccc1	-2.8
COc1ccc(/C=C/C(=O)c2c(OC)cc(OC)c(CC=C(C)C)c2OC)cc1	5.1
COc1ccc(C2=NN(C(=O)CCC(=O)O)C(c3cccs3)C2)cc1 (stereo unspecified)	0.7
COc1ccc(C2C3=C(CC(C)(C)CC3=O)Nc3ccccc3N2C(C)=O)cc1COc1ccc(F)cc1 (stereo unspecified)	9.1
C[C@H](CO)N1C[C@H](C)[C@@H](CN(C)S(=O)(=O)c2ccccc2)Oc2c(NS(=O)(=O)c3ccc(Cl)cc3)cccc2C1=O	18.9
COc1ccc(NC(=O)N(C)C[C@@H]2Oc3ccc(NC(=O)NC(C)C)cc3CC(=O)N([C@@H](C)CO)C[C@@H]2C)cc1	3.7
C[C@H]1CN([C@@H](C)CO)C(=O)Cc2cc(NC(=O)Nc3cccc4ccccc34)ccc2O[C@H]1CN(C)S(=O)(=O)c1ccc(F)cc1	49.3
CCN1CCN(S(=O)(=O)c2cc(OCC(N)=O)c(C)cc2Cl)CC1	12.8
Cc1noc(C)c1NC(=O)N(C)C[C@@H]1Oc2ccc(NS(C)(=O)=O)cc2CC(=O)N([C@H](C)CO)C[C@@H]1C	-3.2

Ordered by molar mass (descending): 3 of the compounds above
SMILES	NOMO-1 viab
C[C@H]1CN([C@@H](C)CO)C(=O)Cc2cc(NC(=O)C3CCCCC3)ccc2O[C@H]1CN(C)S(=O)(=O)c1ccccc1	-2.8
Cc1noc(C)c1NC(=O)N(C)C[C@@H]1Oc2ccc(NS(C)(=O)=O)cc2CC(=O)N([C@H](C)CO)C[C@@H]1C	-3.2
COc1ccc(/C=C/C(=O)c2c(OC)cc(OC)c(CC=C(C)C)c2OC)cc1	5.1

(listing goes on)
SMILES	NOMO-1 viab
COc1ccc(CN(C)C[C@@H]2Oc3ccc(NC(=O)Cc4ccccc4)cc3CC(=O)N([C@H](C)CO)C[C@H]2C)cc1	-23.4
CCOC(=O)C1=C(C)N(C)C(=O)N(C)C1c1ccccc1 (stereo unspecified)	-11.8
CC1CCc2c(sc3nc(SC(C)C(=O)Nc4ccccc4)nc(N)c23)C1 (stereo unspecified)	-8.0
CNC(=O)Nc1cccc(-c2ccnc(C)n2)c1	31.0
Cc1nnc(SCC(=O)Nc2ccccc2C(C)C)s1	16.7
CSc1nc(N)n2nc(-c3ccccc3)cc2n1	10.0
C[C@@H]1CN([C@H](C)CO)C(=O)Cc2cc(NC(=O)Cn3cnnn3)ccc2O[C@@H]1CN(C)C	16.5
Cc1ccc(S(=O)(=O)N(C)C[C@H]2Oc3c(NS(=O)(=O)c4ccc(Cl)cc4)cccc3C(=O)N([C@@H](C)CO)C[C@@H]2C)cc1	29.9
Cn1c(SCC(=O)Nc2ccccc2Cl)nnc1-c1cccc([N+](=O)[O-])c1	10.3
Cc1nnc(SCC(=O)Nc2ccccc2C#N)s1	4.3
Cc1cc(C(=O)Nc2cccc3c2O[C@H](CN(C)S(=O)(=O)c2ccc(Cl)cc2)[C@H](C)CN([C@@H](C)CO)C3=O)n(C)n1	38.3
CNC[C@@H]1Oc2c(NS(=O)(=O)c3ccc(OC)cc3)cccc2C(=O)N([C@H](C)CO)C[C@H]1C	0.6
C[C@@H]1CN([C@H](C)CO)C(=O)c2cc(NS(=O)(=O)c3ccccc3)ccc2O[C@@H]1CN(C)Cc1ccc(Cl)c(Cl)c1	65.6

Screening data (PubChem)
